GIRK2 activ: activators of human GIRK2 potassium channels; calls only for hits at 25 µM; AID 1259325, 2017; HEK293-GIRK2 thallium flux, Thallos fluorescence; G protein-activated inward rectifier potassium channel 2 (Homo sapiens), P48051; hit rate 0.05% among 63,000;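 active = among the strongest 0.2% of first-round signals and kept after retests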;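 also: first round at about 10 µM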
Target sequence (P48051 whole entry, looked up): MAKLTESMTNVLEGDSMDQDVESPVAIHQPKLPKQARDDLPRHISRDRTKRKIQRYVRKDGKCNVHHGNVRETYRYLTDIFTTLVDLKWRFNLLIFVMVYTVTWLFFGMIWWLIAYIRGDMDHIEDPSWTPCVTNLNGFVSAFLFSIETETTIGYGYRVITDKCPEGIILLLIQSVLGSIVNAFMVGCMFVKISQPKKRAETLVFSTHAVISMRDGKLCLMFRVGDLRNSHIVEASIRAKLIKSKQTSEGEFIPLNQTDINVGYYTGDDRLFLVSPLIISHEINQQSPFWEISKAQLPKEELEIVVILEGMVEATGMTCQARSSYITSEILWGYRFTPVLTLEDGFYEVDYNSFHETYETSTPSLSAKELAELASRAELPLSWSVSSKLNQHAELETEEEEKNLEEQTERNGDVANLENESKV
Calls only; i = inactive. Some of the compounds tested. The share of hits here may be higher or lower than overall.

no. | Structure | GIRK2 activ
1 | N=C(N)SCCc1ccc(CCSC(=N)N)cc1 | i
2 | CCOc1ccc(-c2ccc(=O)n(C(C)C(=O)NCCn3ccnc3C)n2)cc1 (centres undefined) | i
3 | O=C(Nc1sc2c(c1-c1nc3ccccc3s1)CCN(Cc1ccccc1)C2)C1CC1 | i
4 | COc1ccccc1N1CCN(S(=O)(=O)c2ccc(F)c(C(=O)Nc3ccc(Cl)cc3)c2)CC1 | i
5 | COc1cccc(N2CCN(C(=O)c3snc4c(=O)n(C(C)C)c(=O)[nH]c34)CC2)c1 | i
6 | COc1ccc(-c2ccc(=O)n(CCNC(=O)c3ccc(S(=O)(=O)N4CCCCC4)cc3)n2)cc1 | i
7 | COc1ccc(-c2cc3c(=O)n(CC(=O)NCCCc4ccccc4)ccn3n2)cc1 | i
8 | COc1ccc(S(=O)(=O)N2CCCc3cc(NS(=O)(=O)c4ccc(C)cc4)ccc32)cc1 | i
9 | Cc1csc(SCC2CCN(S(=O)(=O)c3ccc4c(c3)OCCO4)CC2)n1 | i
10 | COc1ccc(S(=O)(=O)N2CCCOC2CNC(=O)C(=O)NC2CCCCC2)cc1OC (centres undefined) | i
11 | COc1cccc(C(O)CN2CCN(c3ccc(Cl)cc3)CC2)c1 (centres undefined) | i
12 | Cc1cn2c3c(=O)n(CC(=O)OCc4ccccc4)c(=O)n(C)c3nc2n1C(C)C | i
13 | C=CCOCC(O)Cn1c(N2CCN(Cc3ccccc3)CC2)nc2c1c(=O)[nH]c(=O)n2C (centres undefined) | i
14 | Cc1nnc(C2CCN(C(=O)c3cc(-c4cccs4)on3)CC2)s1 | i
15 | Cc1nc(NCCNC(=O)C(C)(C)Oc2ccc(Cl)cc2)cc(Nc2ccccn2)n1 | i
16 | CC(=O)CC1(O)C(=O)N(CCOc2ccccc2)c2ccc(Br)cc21 (centres undefined) | i
17 | CCCc1cnc2c(c1SCC(=O)Nc1ccc(C(C)=O)cc1)c(=O)n(C)c(=O)n2C | i
18 | COc1ccccc1N1CCN(S(=O)(=O)c2ccc(F)c(C(=O)Nc3ccc(Cl)cc3F)c2)CC1 | i
19 | O=C(NCc1ccccc1)N1CCCSCC1CN1CCCC1 (centres undefined) | i
20 | CCSc1ccccc1C(=O)Nc1ccc(-c2ccn[nH]2)cc1 | i

A different layout for 3 compounds above:
18: COc1ccccc1N1CCN(S(=O)(=O)c2ccc(F)c(C(=O)Nc3ccc(Cl)cc3F)c2)CC1
  GIRK2 activ = i

12: Cc1cn2c3c(=O)n(CC(=O)OCc4ccccc4)c(=O)n(C)c3nc2n1C(C)C
  GIRK2 activ = i

19: O=C(NCc1ccccc1)N1CCCSCC1CN1CCCC1 (centres undefined)
  GIRK2 activ = i

Remaining list, next part.
no. | Structure | GIRK2 activ
21 | O=C(/C=C/c1nc2ccccc2[nH]1)c1c(-c2ccccc2)c2ccccc2[nH]c1=O | i
22 | NC(=O)CSc1ncccc1-c1nc2ccccc2[nH]1 | i
23 | Cc1cc(C)n(CCNC(=O)c2coc(NC(=O)c3cnccn3)n2)n1 | i
24 | CS(=O)(=O)c1ccc2nc(N3CCN(C(=O)/C=C/c4ccccc4)CC3)sc2c1 | i
25 | Cc1cc(C)c(NC(=O)C(=O)NCCc2ccc3c(c2)CCCN3C)c(C)c1 | i
26 | CC(=O)NC1=NN(C(C)=O)C2(S1)C(=O)N(Cc1ccccc1Cl)c1ccccc12 (centres undefined) | i
27 | COc1cc(NC(=O)Cn2nc(S(=O)(=O)c3ccc(Cl)cc3)ccc2=O)cc(OC)c1OC | i
28 | COC(=O)c1ccc2c(=O)c(-c3ccc4c(c3)OCCCO4)c(C)oc2c1 | i
29 | O=C(CCCc1nnc2c(=O)n(-c3ccc(Cl)cc3)ccn12)NCc1cccs1 | i
30 | Cc1c(C)n2c3c(=O)n(C)c(=O)n(C)c3nc2n1Cc1ccc(Cl)c(Cl)c1 | i
31 | O=C(/C=C/c1ccccc1Cl)Nc1ccc2c(c1)CC(=O)N2 | i
32 | CS(=O)(=O)c1ccc(-c2nnc(SCC(=O)c3ccc(Cl)cc3Cl)o2)cc1 | i
33 | O=C(c1ccc(Br)o1)N1CCN(Cc2nc(-c3ccccc3)cs2)CC1 | i
34 | O=C(Nc1nc2ccccc2s1)C1COCC(=O)N1Cc1ccccc1 (centres undefined) | i
35 | CNC(=O)CSc1nnc(N2CCN(C(=O)c3cccc(F)c3)CC2)s1 | i
36 | Cc1ccc(C(=O)O)cc1NC(=O)/C=C/C(=O)O | i
37 | COc1ccc(C)cc1NC(=O)Nc1cnc(N2CCOCC2)nc1 | i
38 | C#CCCNC(=O)c1ccc(=O)[nH]c1 | i
39 | O=c1cc(CN2CCC3(CC2)OCCO3)c2cc3c(cc2o1)OCO3 | i
40 | COCCN1CCC(NC(=O)c2ccc(C)cc2)CC1 | i
41 | O=C(c1ccc(Oc2ccccc2)cc1)N1C2CCC1COC2 | i
42 | CCCC(=O)N1N=C(c2ccc(NS(C)(=O)=O)cc2)CC1c1ccco1 (centres undefined) | i
43 | CC(C)C(=O)Nc1cc(N2CCN(Cc3ccccc3)CC2)ncn1 | i
44 | CCc1nn2c(N3CCCC3)cc(C)nc2c1-c1ccccc1 | i
45 | O=C(c1ccccc1Br)N1CCN(Cc2nncn2C2CCCCC2)CC1 | i
46 | COc1ccc(/C=C/C(=O)N(C)C2CCCCC2)cc1Br | i
47 | COc1cc(NC(=O)Nc2ccc(CC(N)=O)cc2)cc(OC)c1 | i
48 | CN(C)C(=O)c1nnn(-c2ccc(NC(=O)c3cccs3)cc2)n1 | i
49 | CC(C)=CCC[C@](C)(O[C@@H]1O[C@H](CO[C@@H]2O[C@H](CO)[C@@H](O)[C@H](O)[C@H]2O)[C@@H](O)[C@H](O)[C@H]1O)[C@H]1CC[C@]2(C)C1[C@H](O)CC1[C@@]3(C)CC[C@H](O[C@@H]4O[C@H](CO)[C@@H](O)[C@H](O)[C@H]4O)C(C)(C)C3CC[C@]12C (some centres undefined) | i
50 | COc1ccc(Cl)cc1NC(=O)CN1CCc2nc(NC(=O)c3ccoc3)sc2C1 | i
51 | CCOC(=O)c1ccc(-n2c(C)cn3c4c(=O)[nH]c(=O)n(C)c4nc23)cc1 | i
52 | O=C(c1ccccc1Br)N(C(=O)N1CCCCC1)c1ccccc1 | i
53 | COCCN(Cc1ccncc1)C(=O)C1CC=CCC1 (centres undefined) | i
54 | CC(=O)Nc1cnc(Oc2ccccc2F)nc1 | i
55 | CN(C(=O)Cn1c(=O)n(Cc2ccccn2)c(=O)c2ncccc21)c1ccccc1 | i
56 | O=S(=O)(c1ccc(F)c(Cl)c1)N1CCCC(COCc2ccccc2)C1 (centres undefined) | i
57 | Cc1ccc(NC(=O)CSc2nnc3n(CCC(=O)NC(C)C)c(=O)c4ccccc4n23)cc1 | i
58 | COc1cccc(C(=O)N2CCN(CC(=O)c3ccco3)CC2)c1 | i
59 | COc1ccccc1C1(CNC(=O)C2CCCCC2)CCOCC1 | i
60 | O=C(NCCCn1ncccc1=O)C1COCC(=O)N1Cc1cccs1 (centres undefined) | i
61 | O=S1(=O)CC(O)C(N2CCCCC2)C1 (centres undefined) | i
62 | O=C(NC(c1ccccc1)c1ccccc1)N(Cc1ccoc1)Cc1cccs1 | i
63 | CCOC(=O)c1[nH]c2ccccc2c1NC(=O)c1ccc(C)c(C)c1 | i
64 | O=C(Cc1ccccc1)Nc1ccc(N2CCOCC2)cc1 | i
65 | Cc1ccsc1C(O)CNC(=O)Nc1cccc(C(F)(F)F)c1 (centres undefined) | i
66 | O=c1c(-c2ccc(Cl)cc2)coc2c3c(ccc12)OCN(CCN1CCOCC1)C3 | i
67 | O=C(c1ccc(Br)o1)N(Cc1ccoc1)Cc1cccs1 | i
68 | CC(C)S(=O)(=O)c1ccc(C(=O)N2CC(Oc3nc4c(F)cccc4s3)C2)cc1 | i
69 | CC(C)NC(=O)CSc1nnc(N2CCN(C(=O)CN3C(=O)c4ccccc4C3=O)CC2)s1 | i
70 | CCCCCCCCCCOc1ccc(OCC(=O)Cn2cc(C(=O)OC)c3cc(C(=O)O)ccc32)cc1 | i

The list goes on:
no. | Structure | GIRK2 activ
71 | Cc1nc(SCC(=O)Nc2cccc(Cl)c2)cc(-c2ccccn2)n1 | i
72 | Cn1nc(CNC(=O)c2cc3ccccc3o2)cc1-c1ccncc1 | i
73 | CC1CCCCN1S(=O)(=O)c1ccc(C(=O)Nc2ccccc2Oc2ccccc2)cc1 (centres undefined) | i
74 | COc1ccc(Br)cc1S(=O)(=O)NCc1ccccn1 | i
75 | O=C(Nc1ccc(F)cc1)C1CCN(S(=O)(=O)c2ccc(Cl)cc2)CC1 | i
76 | CC1=C(C(=O)OC(C)C)C(c2cccc(F)c2)n2ncnc2N1 (centres undefined) | i
77 | O=C(CC(c1ccccc1)c1ccccc1)N1CC(c2nc(-c3ccccc3)no2)C1 | i
78 | CC1CN(c2oc(-c3ccc(COc4ccccc4)o3)nc2C#N)CC(C)O1 (centres undefined) | i
79 | O=C(Cn1nc(-c2ccco2)c2sc(N3CCCC3)nc2c1=O)N1CCc2ccccc21 | i
80 | O=C(Nc1cnc(N2CCN(c3ccccc3)CC2)nc1)c1cccs1 | i
81 | Cn1c(SCCCNc2ccc(S(C)(=O)=O)cc2[N+](=O)[O-])nnc1-c1ccc2c(c1)OCO2 | i
82 | Cc1cc(NC(=O)CN2C(=O)CCC2=O)sn1 | i
83 | COc1ccc(CC(=O)N2CCC(Oc3nc4c(C)cccc4s3)CC2)cc1C | i
84 | Cc1cccc(C)c1N1CCN(S(=O)(=O)N2CCCCC2)CC1 | i
85 | C=CCNc1nc2ccccc2nc1NS(=O)(=O)c1cccc(C)c1 | i
86 | O=C(Cn1c(-c2ccccn2)nc2ccccc21)NCc1ccc2c(c1)OCO2 | i
87 | O=C1CC(NS(=O)(=O)c2ccc3ccccc3c2)CN1C1CC1 (centres undefined) | i
88 | COc1ccc(S(=O)(=O)Nc2ccc(Nc3ccc(C)nn3)cc2)c(OC)c1OC | i
89 | COc1ccccc1CC(=O)N1CCN(c2ccc(-c3ccc4c(c3)OCO4)nn2)CC1 | i
90 | Cc1cc(C(=O)N2CC(c3nc4ccccc4[nH]3)C2)no1 | i
91 | COc1cccc(COc2cn(C)c(C(=O)NC(C)c3ccccc3)cc2=O)c1 (centres undefined) | i
92 | CC(C(=O)N1CCN(S(C)(=O)=O)CC1)n1nc(-c2ccccc2)ccc1=O (centres undefined) | i
93 | O=C(Cc1noc2ccccc12)Nc1cc(N2CCCC2)ncn1 | i
94 | COc1cc2c(c3c1C(=O)CC(c1ccccc1)O3)C1C(O2)C1(C)C (centres undefined) | i
95 | COc1ccc(-c2coc3cc(OCC(=O)OC(C)C)ccc3c2=O)cc1OC | i
96 | Cn1c(=O)c(C(=O)Nc2ccccc2C(N)=O)cc2cccnc21 | i
97 | O=C(NCc1cccc2ccccc12)N1CCC(Oc2ccc(Cl)cn2)CC1 | i
98 | CC(C)OCCCNc1nc2c(c(=O)[nH]c(=O)n2C)n1CCOc1ccccc1 | i
99 | O=C(COc1ccc2ccccc2c1)NCCOc1ccc2c(c1)OCO2 | i
100 | CS(=O)(=O)c1ccc(Nc2nc(C(=O)Nc3ccccc3C(N)=O)cs2)cc1 | i
101 | CCOC(=O)c1c(NC(=O)COc2ccc(Cl)cc2)sc2c1CCN(Cc1ccccc1)C2 | i
102 | Cn1c(C2CCC(CNC(=O)CSc3ccncc3)CC2)nc2ccccc21 (centres undefined) | i
103 | O=C(NCc1cccs1)c1ccc(Nc2nn3c(=O)c4ccccc4nc3s2)cc1 | i
104 | CCN(CC)C(=O)CN1C(=O)N(c2c(C)cccc2C)S(=O)(=O)c2ccccc21 | i
105 | O=C(Nc1ccc2c(c1)Cc1ccccc1-2)c1cc2n(n1)CCCO2 | i
106 | O=C(NCCCN1CCOCC1)C1CCCN(c2nc3ccccc3o2)C1 (centres undefined) | i
107 | CC(O)(CCc1ccccc1)CNS(=O)(=O)c1ccc(C(F)(F)F)cc1 (centres undefined) | i
108 | COc1coc(C(=O)NC(C)CCc2ccccc2)cc1=O (centres undefined) | i
109 | CCCn1c(=N)c(S(=O)(=O)c2ccc(C)cc2)cc2c(=O)n3cc(C)ccc3nc21 | i
110 | COc1ccc2c(=O)c3c(oc2c1)C(=O)N(c1nccs1)C3c1cccc(OC(C)C)c1 (centres undefined) | i

Random excerpt: 7 records from the list
no. | Structure | GIRK2 activ
105 | O=C(Nc1ccc2c(c1)Cc1ccccc1-2)c1cc2n(n1)CCCO2 | i
107 | CC(O)(CCc1ccccc1)CNS(=O)(=O)c1ccc(C(F)(F)F)cc1 (centres undefined) | i
108 | COc1coc(C(=O)NC(C)CCc2ccccc2)cc1=O (centres undefined) | i
101 | CCOC(=O)c1c(NC(=O)COc2ccc(Cl)cc2)sc2c1CCN(Cc1ccccc1)C2 | i
106 | O=C(NCCCN1CCOCC1)C1CCCN(c2nc3ccccc3o2)C1 (centres undefined) | i
102 | Cn1c(C2CCC(CNC(=O)CSc3ccncc3)CC2)nc2ccccc21 (centres undefined) | i
103 | O=C(NCc1cccs1)c1ccc(Nc2nn3c(=O)c4ccccc4nc3s2)cc1 | i

Further structures:
no. | Structure | GIRK2 activ
111 | O=S(=O)(c1ccc(Cl)cc1)N1CCCC(c2nc(-c3ccccc3)no2)C1 (centres undefined) | i
112 | COc1ccccc1N1CCN(Cc2cc(=O)oc3c(C)c(C)ccc23)CC1 | i
113 | CC(C)c1nccn1CC1CCN(C(=O)c2ccccc2Cl)CC1 | i
114 | N#Cc1ccc2[nH]cc(S(=O)(=O)c3cccc(F)c3)c(=O)c2c1 | i
115 | COC(=O)N1CCC(CNC(=O)C2CC(=O)N(c3ccc(F)cc3)C2)CC1 (centres undefined) | i
116 | COc1cccc2cc(C(=O)NCC3CCN(S(=O)(=O)c4cccnc4)CC3)oc12 | i
117 | O=C(Nc1nc(-c2ccco2)cs1)c1cccc(-n2cnnn2)c1 | i
118 | COc1ccc2nc(CN3CCN(CC(=O)NC(C)C)CC3)[nH]c2c1 | i
119 | COc1cc(C(=O)N2N=C(c3ccccc3)CC2c2ccco2)cc(OC)c1OC (centres undefined) | i
120 | CCOC(=O)c1cnc2cc(F)cc(F)c2c1Cl | i
121 | Cc1ccc(Cl)cc1NC(=O)CSc1nccc(N2CCCCC2)n1 | i
122 | CCOc1ccc(-c2nc(CSc3nc(-c4ccc(OC)cc4)cc(=O)[nH]3)c(C)o2)cc1 | i
123 | Cc1ccc(S(=O)(=O)N(C)CCCCCC(=O)Nc2ccccc2C)cc1 | i
124 | Cc1ccc(-n2c(C)nc3ccc(NC(=O)Cc4cccs4)cc3c2=O)cc1 | i

Screening results deposited in PubChem by Vanderbilt University.
